Source: PubChem
PrP 5UTR inh: inhibition of PrP 5' UTR reporter expression. cell-based PrP 5' UTR mRNA reporter, plate reader. inhibition, % (test concentration not listed). 0.35% of 340,000 active;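 active means every replicate at 50% or more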;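 further: 0 = median of the neutral control wells; tested in H4 reporter cells; numbers are from one replicate; inactives centre near -14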
Bead autofluor: compound fluorescence in toxin protease inhibitor counterscreen. compound autofluorescence counterscreen, microsphere flow cytometry; stronger effect = higher value. fluorescence intensity (concentration not given with the values). 3.1% of 360,000 active;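 active means at least 3 SD above the mean of all compounds, about 16000 in these data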;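 further: 100 nL of 1 mM stock went into each well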
Numbers without * were called inactive.

SMILES | PrP 5UTR inh | Bead autofluor
CC(=O)C1C(N2CC2)CC2C3CCC4=CC(=O)CCC4(C)C3CCC21C (centres undefined) | -36 | 3612
C[C@@H]1CCCCCCCCC(=O)OCCN1C(=O)OC(C)(C)C | -19 | 3780
Nc1cc2c(cc1Br)-c1c(C(=O)O)cccc1C2O (centres undefined) | -12 | 3771
C[C@@]12C(=O)Nc3cc(F)c(F)cc3C(=O)N1[C@H]1c3cc(Cl)ccc3OC[C@@H]1[C@@H]2c1ccccc1 | -25 | 2991
COC(=O)C1C2CC(=O)C(C2)C1C(=O)OC (centres undefined) | -20 | 3360
Cc1nnc(NS(=O)(=O)c2ccc(F)cc2)s1 | -11 | 4076
O=c1ccncn1C1OC(CO)C(O)C1O (centres undefined) | 2 | 2965
C=CCCO[C@@H]1O[C@@H](C)[C@H](O)C[C@H]1O | -7 | 3926
COc1ccccc1N1CCN(CCCN2C(=O)C3CCCN3C2=O)CC1 (centres undefined) | -10 | 3975
COc1cccc(NC(=O)[C@@H]2CCCN2S(=O)(=O)c2cccc3cccnc23)c1 | 0 | 2886
C[C@@H]1COC(=O)[C@@H](CC(=O)OC(C)(C)C)C/C=C\C[C@H](CC(=O)NCCO)C(=O)N1 | -11 | 4451
O=C(N/N=C/c1cc(Cl)ccc1O)C(=O)Nc1ccccc1OC(F)(F)C(F)F | 1 | 2428
O=C(Cc1ccccc1)N/N=C/c1ccccc1Cl | -12 | 7981
C[C@@]12C(=O)Nc3cc(F)ccc3C(=O)N1[C@H]1c3cc(Br)ccc3OC[C@@H]1[C@@H]2c1ccccc1 | -24 | 3634
COC(=O)C1=C(c2cccc(OCc3ccccc3)c2)C[C@@H]2CC[C@H]1N2C(=O)NNCc1ccccc1 | -24 | 3733
Cc1ccc(F)c(C2=CC(=O)C[C@H](c3ccc(F)cc3)C2)c1 | -6 | 2747
CCc1ccc(Cn2ncc3c(C(=O)O)cc(C)nc32)cc1 | -10 | 2788
CCOC(=O)c1sc(/N=C/Nc2nc(C)c(C(=O)OCC)s2)nc1C | 0 | 2476
CCn1c(/N=C/c2ccccc2NS(=O)(=O)c2ccc(C)cc2)nc2ccccc21 | -2 | 7712
CC(=O)Nc1cccc(C(=O)NNC(=O)c2n[nH]c(=O)c3ccccc23)c1 | -16 | 2927
O=C(Nc1ccc(F)c(Cl)c1)c1ccccc1NC(=O)C1CCCCC1C(=O)O (centres undefined) | -25 | 3757
CC(C)C[C@@H](CN1C(=O)C(=O)NC[C@@H]1CC(C)C)NC(=O)Cc1ccccc1 | -6 | 3479
CCCN(C(=O)COC(=O)CNS(=O)(=O)c1ccc(NC(C)=O)cc1)C1CCS(=O)(=O)C1 (centres undefined) | -6 | 3676
COc1ccc(C=NNC(=O)CCCC(=O)NN=Cc2ccc(OC)c(OC)c2)cc1OC | -40 | 3166
COc1ccc([C@H]2CC(=O)C=C(c3cc4ccccc4s3)C2)cc1OC | -19 | 4134
SMILES | PrP 5UTR inh | Bead autofluor
O=C(O)c1cccc(-n2sc3ccccc3c2=O)c1 | -25 | 5075
CC(C)(C)OC(=O)N1CCCC(C(=O)Nc2ccc(C(=O)NCc3ccccc3)cc2)C1 (centres undefined) | -14 | 4079
CCCCNc1c(-c2ccc(OC)c(SC(C)CC)c2)nc2cnccn12 (centres undefined) | 7 | 5444
COC(=O)C1=C(c2ccc(C(C)=O)cc2)C[C@@H]2CC[C@H]1N2C(=O)NCc1ccc2c(c1)OCO2 | 1 | 3943
COc1ccc(C2C3=C(COC3=O)Oc3cc4c(cc32)OCO4)cc1OC (centres undefined) | 7 | 2744
O=C1C(=C(I)I)c2ccccc2-c2ccccc21 | -40 | 3094
CC(C)C[C@H]1CNC(=S)N1CC1CCCN1C[C@H](CC(C)C)N1C[C@H](Cc2ccccc2)N(CC2CCCCCC2)C1=S (some centres undefined) | -23 | 3812
C[C@H](CO)N1C[C@H](C)[C@@H](CN(C)S(=O)(=O)c2ccccc2)Oc2c(NC(=O)NC3CCCCC3)cccc2C1=O | -11 | 3079
COc1ccc(C(CNC(=O)c2cc(S(=O)(=O)N3CCCC3)ccc2Cl)N2CCCC2)cc1 (centres undefined) | 15 | 3627
COc1ccc(C)cc1C1=CC(=O)C[C@H](c2ccc(F)cc2)C1 | -19 | 3709
O=[N+]([O-])c1cccc(C=NN=Cc2ccccc2O)c1 | -51 | 2832
CCN[C@H]1C[C@H](C)S(=O)(=O)c2sc(S(N)(=O)=O)cc21 | -9 | 6167
CC(C)NC(=O)Nc1ccc2c(c1)C(=O)N([C@H](C)CO)C[C@@H](C)[C@@H](CN(C)C(=O)NC1CCCCC1)O2 | -18 | 4053
CC[C@H](C)[C@H]1CNC(=O)C(=O)N1CC1CCN(CCc2ccc(Cl)c(Cl)c2)CC1 | -6 | 3818
O=C(NCc1ccccc1)c1ccccc1 | 2 | 4150
CCOc1cc(C)nc(N2CCC(C(=O)NC3CC3)CC2)n1 | -7 | 3012
CC(C)C[C@@H]1NC(=O)[C@H](CO)NC(=O)c2cc([N+](=O)[O-])cc(I)c2OCC[C@@H](C(N)=O)NC1=O | -15 | 3827
OCC[C@H]1C[C@@H](O)[C@H](O)[C@]2(Cc3ccccc3CO2)O1 | -16 | 3942
C#CCOCCOCCOCCNc1nc(N2CCOCC2)nc(N2CCN(C(=O)CCCCCCCCCCNC(=O)[C@H](CO)n3cc(CCCCCN)nn3)CC2)n1 | -14 | 4270
CCC(CC)CN1CCC(CN2C(=S)NC[C@@H]2[C@@H](C)CC)CC1 | -20 | 3862
Cc1ccc(NCCCn2ccc(NC(=O)OCc3ccccc3)nc2=O)cc1C | -11 | 3550
C(COC1CC2CC1C1C2CC2OC21)OC1CC2CC1C1C2CC2OC21 (centres undefined) | -17 | 3254
O=S(=O)(c1cccc(C(F)(F)F)c1)N1CCN(S(=O)(=O)c2ccc3c(c2)OCCO3)CC1 | -21 | 3701
CCOC(=O)C1=CN2CCCC[C@@H]2CC1=O | -18 | 3585
COc1ccc(CCNC(=O)C2COc3ccccc3O2)cc1OC (centres undefined) | -12 | 3847
SMILES | PrP 5UTR inh | Bead autofluor
CCOC(=O)[C@H]1[C@H]2COc3ccccc3[C@@H]2N2C(=O)c3cc(OC)ccc3NC(=O)[C@@]12C | -11 | 2937
CC(C)(C)N(Cc1ccc2c(c1)OCO2)C(=O)/C=C\S(=O)c1ccccc1 (centres undefined) | 37 | 3128
CCN1C(=NCc2ccco2)N[C@@H](c2cccc(C(F)(F)F)c2)C(C(=O)OC)=C1C | 3 | 4462
NS(=O)(=O)c1ccc(CCNC(=O)CCCn2c(=O)[nH]c3ccc(Br)cc3c2=O)cc1 | -18 | 2256
COC(=O)[C@H](Cc1ccccc1)NS(=O)(=O)N[C@@H](Cc1ccccc1)C(=O)OC | -16 | 4192
O=C(OC12CC3CC(CC(C3)C1)C2)c1ccc(NCc2cc(O)ccc2O)cc1 | -31 | 3093
COC[C@H]1OC(=O)c2coc3c2[C@@]1(C)C1=C(C3=O)[C@@H]2CCC(=O)[C@@]2(C)C[C@H]1OC(C)=O | 15 | 2683
O=C(O)c1cc2ccccc2[nH]1 | 2 | 3943
Cc1ccc2c(c1)[C@H]1[C@H](CO2)[C@H](c2ccccc2)[C@]2(C)C(=O)N(Cc3ccc(Cl)cc3)CC(=O)N12 | -19 | 4088
COC(=O)C1=C(C(=O)OC)C2OC1c1cc3ccccc3cc12 | -18 | 3737
CCC(CCNC(=O)c1ccccc1)(CCNC(=O)c1ccccc1)[N+](=O)[O-] | -5 | 4249
CCOC(=O)C1=NNC(C(=O)O)C1c1ccccc1 (centres undefined) | -2 | 3068
CN(C)C(=S)N=c1ssc(=S)n1Cc1ccco1 | 14 | 3955
Cc1ccc(OC(C)C(=O)N2CCN(c3ccccn3)CC2)cc1 (centres undefined) | -20 | 3687
O=C1CCN(Cc2ccccc2)C=C1c1cccc(O)c1 | -7 | 3654
COC(=O)C1=C(C(=O)OC)[C@]2([C@H]3CCCCN[C@@H](Cc4ccccc4)C(=O)N3Cc3ccccc3)C=C[C@H]1O2 | -28 | 4305
C[C@@H]1CN([C@H](C)CO)C(=O)c2cc(NS(=O)(=O)c3cn(C)cn3)ccc2O[C@H]1CN(C)C(=O)Nc1ccccc1 | -12 | 4154
O=C(C[C@@H]1C/C=C\C[C@H](Cc2ccc(F)cc2)C(=O)OC[C@H]2CCCN2C1=O)N[C@H](CO)Cc1ccccc1 | -21 | 3443
C[C@H](CO)N1C[C@H](C)[C@@H](CN(C)Cc2ccc(Cl)c(Cl)c2)Oc2c(NC(=O)c3ccncc3)cccc2C1=O | -22 | 3754
CCOC(=O)[C@H](CCc1ccccc1)N[C@@H](C)C(=O)N1CCC[C@@H]1C(=O)O | -24 | 5829
CC(C)(C)OC(=O)NCCCCCc1cn([C@@H](CO)C(=O)NCCCCCCCCCCC(=O)N2CCN(C(=O)OC(C)(C)C)CC2)nn1 | -46 | 4036
COC(=O)C1=C(c2ccc(-c3ccccc3)c(F)c2)C[C@@H]2CC[C@H]1N2C(=O)NCCCOC(C)C | 8 | 2821
CCOC(=O)c1ccc(N2C(=O)[C@@H](c3ccccc3)[C@H]2c2ccccc2)cc1 | -3 | 3474
COc1ccc(CNC[C@H]2O[C@@H](n3ccc(=O)[nH]c3=O)[C@H](O)[C@@H]2O)cc1OC | -1 | 3510
c1ccc(C2c3ccccc3-n3nncc3CN2CC2CCCCC2)cc1 (centres undefined) | -12 | 3597

Part of the list above in order of SMILES length, smallest number first:
SMILES | PrP 5UTR inh | Bead autofluor
CCOC(=O)C1=NNC(C(=O)O)C1c1ccccc1 (centres undefined) | -2 | 3068
CCc1ccc(Cn2ncc3c(C(=O)O)cc(C)nc32)cc1 | -10 | 2788
Cc1ccc(F)c(C2=CC(=O)C[C@H](c3ccc(F)cc3)C2)c1 | -6 | 2747
CC(=O)C1C(N2CC2)CC2C3CCC4=CC(=O)CCC4(C)C3CCC21C (centres undefined) | -36 | 3612
O=C(Nc1ccc(F)c(Cl)c1)c1ccccc1NC(=O)C1CCCCC1C(=O)O (centres undefined) | -25 | 3757
CC(=O)Nc1cccc(C(=O)NNC(=O)c2n[nH]c(=O)c3ccccc23)c1 | -16 | 2927
COc1ccc(C=NNC(=O)CCCC(=O)NN=Cc2ccc(OC)c(OC)c2)cc1OC | -40 | 3166
NS(=O)(=O)c1ccc(CCNC(=O)CCCn2c(=O)[nH]c3ccc(Br)cc3c2=O)cc1 | -18 | 2256
CCCN(C(=O)COC(=O)CNS(=O)(=O)c1ccc(NC(C)=O)cc1)C1CCS(=O)(=O)C1 (centres undefined) | -6 | 3676
COC(=O)C1=C(c2ccc(-c3ccccc3)c(F)c2)C[C@@H]2CC[C@H]1N2C(=O)NCCCOC(C)C | 8 | 2821
COC(=O)C1=C(c2ccc(C(C)=O)cc2)C[C@@H]2CC[C@H]1N2C(=O)NCc1ccc2c(c1)OCO2 | 1 | 3943
COC[C@H]1OC(=O)c2coc3c2[C@@]1(C)C1=C(C3=O)[C@@H]2CCC(=O)[C@@]2(C)C[C@H]1OC(C)=O | 15 | 2683
C[C@@H]1CN([C@H](C)CO)C(=O)c2cc(NS(=O)(=O)c3cn(C)cn3)ccc2O[C@H]1CN(C)C(=O)Nc1ccccc1 | -12 | 4154
CC(C)(C)OC(=O)NCCCCCc1cn([C@@H](CO)C(=O)NCCCCCCCCCCC(=O)N2CCN(C(=O)OC(C)(C)C)CC2)nn1 | -46 | 4036
C#CCOCCOCCOCCNc1nc(N2CCOCC2)nc(N2CCN(C(=O)CCCCCCCCCCNC(=O)[C@H](CO)n3cc(CCCCCN)nn3)CC2)n1 | -14 | 4270

More records
SMILES | PrP 5UTR inh | Bead autofluor
Cc1ccc(CN2CCN(CCCn3cnc4c(OCc5ccccc5)ncnc43)CC2)cc1 | -11 | 2901
COc1ccc(S[C@@H](CCN2CC[C@H](NC(=O)OCc3ccccc3)CCC2=O)c2ccccc2)cc1 | -17 | 4188
C[C@H](CO)N1C[C@H](C)[C@@H](CN(C)Cc2ccc(C(=O)O)cc2)Oc2c(NS(=O)(=O)c3cn(C)cn3)cccc2C1=O | -20 | 2957
COC(=O)CCC(C)C1CCC2C3CCC4CC(O)CCC4(C)C3CC(O)C12C (centres undefined) | -3 | 6118
COc1c2ccoc2nc2c(OC)c(OC[C@@H](O)C(C)(C)O)ccc12 | -4 | 4343
O=C(CSc1cc(Cl)ccc1Cl)NC1CC1 | -34 | 3549
COc1ccc(OCC(=O)N/N=C/C2CC=CCC2)cc1 (centres undefined) | -7 | 3190
CCN1C(=O)[C@@H]2[C@@H](c3ccc(-c4ccc(Cl)c(Cl)c4)c(OC)c3)N3CCC[C@@]3(C(=O)OC)[C@@H]2C1=O | -21 | 3495
C=CC[C@@H](CC(=O)N[C@H](CO)Cc1ccccc1)C(=O)NCCOC(=O)[C@@H](CC=C)Cc1ccc(F)cc1 | 2 | 2902
COc1cccc(C2=CC(=O)C[C@H](c3ccc(Cl)cc3)C2)c1 | -29 | 2737
CCN1C(=O)[C@@H]2[C@@H](c3ccc(-c4ccc(OC)cc4)c(OC)c3)N3CCCC[C@@]3(C(=O)OC)[C@@H]2C1=O | -6 | 4253
C=CCC1(CCCCC)C(=O)NC(=S)NC1=O | -11 | 3652
COc1cc(C2c3cc4c(cc3OC(N3CCCCC3)C2C)OCO4)cc(OC)c1O (centres undefined) | -13 | 3410
COc1ccc(CCN2CCC(CN3C(=S)NC[C@@H]3CC(C)C)CC2)cc1OC | -18 | 3967
C#CCCc1cscc1/C=[N+](\[O-])c1ccc(C(=O)OCC)cc1 | -33 | 4442
COc1ccc2c(c1)OC[C@H]1[C@H]2N2C(=O)CN(Cc3ccc(C)cc3)C(=O)[C@@]2(C)[C@H]1c1ccccc1 | -13 | 4319
C/C(=N\NC(=O)c1ccc(O)cc1)c1ccc2c(c1)OCCO2 | -21 | 3122
C=C1c2c(Cl)ccc(O)c2C(O)=C2C(=O)[C@]3(O)C(O)=C(C(N)=O)C(=O)[C@@H](N(C)C)[C@@H]3[C@@H](O)C12 (some centres undefined) | -1 | 5635

Not all compounds are listed, so the mix of outcomes need not match the whole.
